Ba CapD inh – blocks the Bacillus anthracis CapD enzyme | purified CapD enzyme, fluorescence intensity read-out; active compounds read low; some hits fall short of the stated cut | z-score (test concentration not listed) | actives 0.23% (n = 140,000);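 active = z-score under -4 in either of two replicates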;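 note: stock transfer was 100 nL into about 40 µL; score is relative to mean and spread of the plate; one replicate is shown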
AID504770 – growth inhibitors of E. coli YBA685 in a screen for V. cholerae RctB (chromosome II replication) inhibitors | E. coli YBA685 rctB-dependent plasmid, OD600 growth, 3 h; active compounds read low | z-score (test concentration not listed) | actives 0.27% (n = 130,000);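 active = z-score under -2 on both plates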;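 note: wells of about 30 µL received 100 nL stock; score is relative to mean and SD of the test wells; the first replicate is given; strong numbers were not always called active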
* = called active by the depositor; nt = not tested or not shown.

SMILES	Ba CapD inh	AID504770
COc1ccc(-n2c(=S)[nH]c3cc(C(=O)NCc4ccc5c(c4)OCO5)ccc3c2=O)cc1OC	-1.5	nt
CCCCNC(=S)NC1CCCC1	-0.27	0.3
O=C(C/C=N\OCc1ccc([N+](=O)[O-])cc1)Nc1ccc(Cl)c(Cl)c1	-0.68	nt
COc1ccc(CN=CC2=C(O)CC(C)(C)CC2=O)cc1	4.9	-1.1
COCc1cc(OC(=O)N(C)C)nc(SC)n1	-0.23	0.55
Cc1cccc2cc(C3CC(c4ccccc4)=NN3C(=O)CCC(=O)O)c(Cl)nc12 (centres undefined)	-0.43	nt
COC(=O)N/N=C\c1c(C)n(Cc2ccccc2)c2ccccc12	-0.42	0.05
CCn1nnc2cc(C(=O)Nc3ccc(C(=O)OC(C)C)cc3)ccc21	nt	-0.3
CCOC(=O)c1sc(N(Cc2nc(-c3cccc(C)c3)oc2C)C(C)=O)c(C#N)c1C	-0.01	0.35
O=S(=O)(NCC(O)c1ccccc1)c1ccc(-c2ccccn2)s1 (centres undefined)	1.4	-0.2
O=C(Nc1ccccc1F)c1ccc2snnc2c1	-0.59	-0.2
Nc1nccc(-c2nn(-c3ccc(F)cc3)ccc2=O)n1	-2.2	-0.45
NP(N)(=O)C12CC3CC(CC(C3)C1)C2	nt	-0.55
CC1CCCCC1Nc1n[nH]c(=S)s1 (centres undefined)	nt	0.85
CCOc1ccc2c(c1)C1(C)CC(C)(C)N2C(=O)N1c1ccc(Cl)c(Cl)c1 (centres undefined)	-0.23	-0.5
Cc1ccc(OCC(O)Cn2c(=N)n(C)c3ccccc32)cc1 (centres undefined)	0.07	-0.8
COc1ccc(/C=N/NC(=O)CS(=O)(=O)c2ccc(C(F)(F)F)cn2)cc1OC	-0.52	nt
CN(C)Cc1c(O)ccc2c(=O)c(-c3ccc(Cl)cc3)coc12	20	0.1
CC1(C)c2ssc(=S)c2-c2ccccc2N1C(=O)c1cccs1	-0.23	nt
O=c1oc2cc(S(=O)(=O)N3CCCC3)ccc2c2ccc(S(=O)(=O)N3CCCC3)cc12	-0.17	0.6
COc1ccccc1NC(=O)C(C#N)Cc1cc2cc(C)cc(C)c2[nH]c1=O (centres undefined)	nt	0.4
COC(=O)CCc1c(C)nn(-c2ccccc2)c1C	0.11	-0.85
COC(=O)c1ccccc1S(=O)(=O)N1CCN(c2ncccn2)CC1	1.9	-3
COc1ccc(C2=NN(C(=O)COC(=O)c3ccc4c(c3)C(=O)N(CCC(C)C)C4=O)C(c3ccco3)C2)cc1 (centres undefined)	nt	0.05
c1cc2c3c(cccc3c1)NC1(CCCCC1)N2	nt	-0.95
CCOC(=O)C1CCCN(C(=O)C2CCCCC2)C1 (centres undefined)	4.3	-0.55
Cc1cc(NC(=O)/C=C/c2cccs2)n(-c2ccccc2C(F)(F)F)n1	-1.2	-0.4
CCn1c(CN(C)c2ccccc2)nc2cc(S(=O)(=O)N(C)C)ccc21	nt	-0.35
CN1CCC(N(C(=O)/C=C/c2ccccc2)C2CC2)CC1	-0.33	nt
CCn1c(NC(=S)Nc2ccccc2)nc2ccccc21	-0.85	-0.8
O=C(CCC(=O)c1ccccc1)NNC(=O)c1ccncc1	-0.66	nt
C/C(=N\OCC(=O)Nc1ccc2c(c1)OCCO2)c1cc2ccccc2o1	nt	1.4
CCOC(=O)c1cc(C#N)c(C)nc1N1CCN(C(=O)OCC2CCCCN2Cc2ccc(OC)c(Br)c2)CC1 (centres undefined)	1.2	nt
CCOC(=O)Cc1csc(-c2ncc(C(F)(F)F)cc2OCC)n1	68	-0.35
CN(C)c1sc(C(=O)c2ccccc2)cc1-c1ccc(Oc2ccccc2)cc1	-0.95	nt
CCOc1ccc(C(=O)OC(C)CN2CCCCC2)cc1 (centres undefined)	nt	-0.25
CCOC(=O)/C(C#N)=C1\SC=C(c2ccccc2)N1c1c(C)cccc1C	0.18	0.25
CC1Cc2ccccc2N1C(=O)COC(=O)c1ccc(-n2cnnn2)cc1 (centres undefined)	nt	0.85
Fc1c(F)c(C(F)(F)F)c(F)c(F)c1Sc1nc2ccccc2o1	0.2	-0.25
N=c1n(CCN2CCCCC2)c2ccccc2n1CC(=O)c1ccc(Br)s1	nt	-0.65
CCOC(=O)c1csc(NC(=O)c2ccc(S(=O)(=O)N(CC)CC)cc2)n1	-0.21	-1.4
CNC(=O)CC(=O)Nc1ccc(C(=O)O)cc1	-0.25	-0.3
COc1cccc(C2=NOC(C(=O)NC3CCCC3)C2)c1 (centres undefined)	-0.2	0.15
O=C(CSCc1cnn(-c2ccccc2)c1-n1cccc1)N1CCN(c2ccc(F)cc2)CC1	3.6	-0.3
O=C(NCCSc1c[nH]c2ccccc12)c1c(F)cccc1F	-0.24	-0.2
Cc1ccc(C)c(C(C)NC(=O)Cc2c(C)noc2C)c1 (centres undefined)	nt	-0.1
O=C(CCc1ccccc1)Nc1cccc(NC(=O)CCc2ccccc2)n1	3.7	-0.1
Cn1nc(C(=O)N2CCN(c3cccc(C(F)(F)F)c3)CC2)c2c1-c1ccccc1OC2	2.2	1.1
CC1(C)CC(=O)C2=C(C1)Nc1ccc3ccccc3c1C2c1cccc([N+](=O)[O-])c1 (centres undefined)	-0.53	nt
CC(=Nc1cc(C)[nH]n1)C1CCOC1=O (centres undefined)	-1	-1.2
O=C(c1nccc2ccccc12)N1CCN(C/C=C/c2ccccc2)CC1	0.21	nt
Fc1cccc(Cl)c1CSC1=Nc2cc(Cl)ccc2SCC1	-0.54	nt
CN=C1CC(C)(C)CC(=O)/C1=C(\O)CCC(=O)NC	0.41	1.6
Cc1cc(N)nc(=S)[nH]1	nt	-0.7
COc1ccccc1NC(=O)Cc1noc(COC(=O)c2cccc(S(=O)(=O)N3CCc4ccccc43)c2)n1	nt	0.15
CCN(CC)C(=O)C1c2cccn2-c2ccccc2CN1C1CCN(C(C)=O)CC1 (centres undefined)	-0.46	nt
O=C(Nc1ccc(Cl)cc1OC(F)(F)F)c1cccs1	1.1	-0.25
Cc1nn(-c2ccccc2)c(C)c1CN(C)C(=O)c1cc(C2CC2)nn1-c1ccccc1	nt	-0.45
CCNc1ncnc2onc(C)c12	0.78	-1.9
COC(CN(C)C(=O)C1CCCN(S(=O)(=O)c2ccc3c(c2)oc(=O)n3C)C1)OC (centres undefined)	-0.29	0.95

Additional entries.
SMILES	Ba CapD inh	AID504770
COC(=O)/C(C#N)=C/c1ccc(-c2ccccc2)o1	nt	0.1
Fc1ccc(-c2csnn2)cc1	-0.65	0.35
COc1ccccc1N1CCN(C(=O)c2cc3ccc4cccnc4c3[nH]2)CC1	0.03	-0.15
CC(=O)N1N=C(c2ccc3ccccc3c2)OC12CCCC2	10	-0.1
COc1ccc(NC(=O)COc2ncnc3sccc23)cc1	nt	-1
Cc1ccc(S(=O)(=O)Nc2ccc3ncccc3c2)cc1	0.55	nt
Cc1cc(-n2sc3ccccc3c2=O)c2ccccc2n1	nt	1.9
O=[n+]1cc(-c2ccc(F)cc2)n([O-])c2c1CCC2	0.12	-1.1
N#Cc1c(/N=C/c2ccc(F)c(F)c2)sc2c1CCC2	-0.6	-0.45
Cc1cc(Cl)c(C(=O)NC(C)C2CC2)cc1Cl (centres undefined)	-0.17	-0.5
O=C(c1cc(Cl)nc(Cl)c1)N1CCC(N(C2CC2)S(=O)(=O)c2ccccc2)CC1	-0.5	nt
O=c1oc2ccccc2cc1-c1nc(C2CC2)cs1	nt	0.15
O=C(Nc1ccc(S(=O)(=O)N2CCCCC2c2cccnc2)cc1)c1ccc(Cl)cc1Cl (centres undefined)	0.13	nt
Clc1cccc(-n2cc(-c3ccccc3)c3c(NCC4CCCO4)ncnc32)c1 (centres undefined)	-0.62	-0.35
N#Cc1ccc(COC(=O)CC2CCS(=O)(=O)C2)cc1 (centres undefined)	nt	-0.3
COc1cccc(CN(Cc2ccco2)C(c2nnnn2Cc2ccc(F)cc2)C(C)C)c1 (centres undefined)	nt	0.6
O/N=C/c1ccc(Cl)s1	-0.055	1.6
CCN(CC)c1ccc(C2CC(c3ccc(C)cc3)=NN2C(=O)CCC(=O)O)cc1 (centres undefined)	-0.45	nt
CCC/C=C/COC(=O)NCCc1c[nH]c2ccc(OC)cc12	-0.4	nt
CSc1sc(C(=O)NNC(=O)CC(NC(=O)OC(C)(C)C)c2ccc(F)cc2)c2c1C1(CCC2)SCCS1 (centres undefined)	-0.64	nt
CN(C)c1ccc(/C=c2/sc3nnc(-c4ccccc4)n3c2=O)cc1	0.43	-0.35
Cc1cc(C(F)(F)F)c2c(N)c(C#N)sc2n1	nt	0.1
CCC1Oc2ccccc2N(CC(=O)N2CCOCC2)C1=O (centres undefined)	0.64	1.2
Cc1ccc(OCC(=O)C(C#N)c2nc3ccccc3[nH]2)cc1 (centres undefined)	nt	-0.1
COC(=O)c1ccsc1NC(=O)c1cccc(S(C)(=O)=O)c1	nt	-0.5
C=CCSC1=C(C#N)C(c2ccc(OC)cc2)CC(=O)N1 (centres undefined)	0.82	0.1
O=c1c(CSCCNS(=O)(=O)c2ccccc2)cc2cccc3c2n1CCC3	0.12	nt
Cc1ccc(C2(O)CN(c3ccccc3C)C3=[N+]2CCCS3)cc1 (centres undefined)	0.11	nt
CCN(CC)c1ccc(C(=O)N=c2sc3c4ccccc4ccc3n2C)cc1	-0.36	0.9
CC(C)(C)c1ccc(C(=O)NNc2cc(N3CCOCC3)nc(N3CCOCC3)n2)cc1	-0.1	0.2
COC(=O)C1=C(C)NC(C)=C(C(=O)OC)C1C(=O)OCCCn1c(=O)[nH]c2ccccc21	nt	-0.15
COc1ccc(C2CCCCCN2C(=O)Cn2ncc(=O)c3ccccc32)cc1 (centres undefined)	nt	-0.2
CSc1nnc(SC)n1CCNC(=O)OCCc1ccc(Cl)cc1Cl	-0.35	nt
CCc1ccc(NC(=O)CSC2=C(C#N)C(c3cccs3)C3=C(CCCC3=O)N2)cc1 (centres undefined)	4.5	nt
NC(=O)CSc1nc(-c2ccccc2Cl)ns1	-0.18	-0.05
c1ccc(-c2[nH]ncc2-c2nc3ccccc3[nH]2)cc1	8.5	-0.1
Cc1cccc(CN2CCN(Cc3cccc(C)c3O)CC2)c1O	-0.015	-1.1
CN(C)C(=O)COc1cc2oc(=O)c3c(c2cc1Cl)CCC3	-0.055	0.05
COc1ccc2ccccc2c1C1N(c2ccc(C)cc2)CCN1c1ccc(C)cc1	0.055	nt
O=C(N/N=C/c1ccccc1Oc1ccccc1)c1ccc(C(F)(F)F)cc1	-0.34	nt
CCC12CN3CC(CC)(CN(C1)C3c1ccccc1Cl)C2=O (centres undefined)	-0.17	nt
COc1cccc(CNC(=O)c2cnn3c(C)c(Cc4ccccc4Br)c(C)nc23)c1	36	nt
COc1ccc(C(=O)NCCc2ccc(OC)c(OC)c2)cc1	0.055	nt
Cc1n[nH]c(C)c1CCCCCOc1ccccc1	0.41	-1.4
COC(=O)C1CCN(c2cc(C)c3cccc(C(C)C)c3n2)CC1	nt	-0.35
Cc1ccccc1NC(=S)NCc1cccnc1	-0.2	nt
Cc1nnc(SCC(=O)Nc2ccc(OC(F)(F)F)cc2)s1	0.27	nt
CC1=NN(C(=O)C2CC2)C(=O)C1Cc1ccc(F)cc1 (centres undefined)	0.52	1.4
NC(=O)CCS(=O)(=O)c1ccccc1	nt	-1.1
O=C(O)CNC(=O)Cn1cnc2sc3c(c2c1=O)CCCC3	-0.34	-0.45
O=C(c1ccc2c(c1)N(Cc1ccccc1)C(=O)c1ccccc1S2)N1CCCC1	0.26	0.15
O=C(CCc1nc(-c2ccc(Cl)cc2)no1)NNS(=O)(=O)c1ccc(Cl)cc1	0.33	nt
COc1cccc(CC(=O)NC2CCN(c3nccc(C(F)(F)F)n3)CC2)c1	0.72	-0.4
CCc1ccc2c(c1)C1(NN=C(c3ccc(C)cc3)S1)C(=O)N2 (centres undefined)	-0.22	nt
O=C1C=C2c3ccccc3CC3(CCCC3)N2C1=O	-0.71	nt
Cc1ccc(S(=O)(=O)Nc2ccccc2C(=O)Nc2nccs2)cc1	nt	0.75
COCC(C)n1c(C)cc(C(=O)COC(=O)/C(=C/c2cccs2)c2cccs2)c1C (centres undefined)	nt	0

Record cards, as listed above. Screens in order: Ba CapD inh | AID504770
O=C(O)CNC(=O)Cn1cnc2sc3c(c2c1=O)CCCC3 across the screens: -0.34 | -0.45
O=C(c1ccc2c(c1)N(Cc1ccccc1)C(=O)c1ccccc1S2)N1CCCC1 across the screens: 0.26 | 0.15
O=C1C=C2c3ccccc3CC3(CCCC3)N2C1=O across the screens: -0.71 | nt
COc1cccc(CC(=O)NC2CCN(c3nccc(C(F)(F)F)n3)CC2)c1 across the screens: 0.72 | -0.4

Filtered by structure: the entries above with two or more sulfur atoms (15)
SMILES	Ba CapD inh	AID504770
O=S(=O)(NCC(O)c1ccccc1)c1ccc(-c2ccccn2)s1 (centres undefined)	1.4	-0.2
CC1CCCCC1Nc1n[nH]c(=S)s1 (centres undefined)	nt	0.85
CC1(C)c2ssc(=S)c2-c2ccccc2N1C(=O)c1cccs1	-0.23	nt
O=c1oc2cc(S(=O)(=O)N3CCCC3)ccc2c2ccc(S(=O)(=O)N3CCCC3)cc12	-0.17	0.6
CCOC(=O)c1csc(NC(=O)c2ccc(S(=O)(=O)N(CC)CC)cc2)n1	-0.21	-1.4
Fc1cccc(Cl)c1CSC1=Nc2cc(Cl)ccc2SCC1	-0.54	nt
CSc1sc(C(=O)NNC(=O)CC(NC(=O)OC(C)(C)C)c2ccc(F)cc2)c2c1C1(CCC2)SCCS1 (centres undefined)	-0.64	nt
COC(=O)c1ccsc1NC(=O)c1cccc(S(C)(=O)=O)c1	nt	-0.5
O=c1c(CSCCNS(=O)(=O)c2ccccc2)cc2cccc3c2n1CCC3	0.12	nt
CSc1nnc(SC)n1CCNC(=O)OCCc1ccc(Cl)cc1Cl	-0.35	nt
CCc1ccc(NC(=O)CSC2=C(C#N)C(c3cccs3)C3=C(CCCC3=O)N2)cc1 (centres undefined)	4.5	nt
NC(=O)CSc1nc(-c2ccccc2Cl)ns1	-0.18	-0.05
Cc1nnc(SCC(=O)Nc2ccc(OC(F)(F)F)cc2)s1	0.27	nt
Cc1ccc(S(=O)(=O)Nc2ccccc2C(=O)Nc2nccs2)cc1	nt	0.75
COCC(C)n1c(C)cc(C(=O)COC(=O)/C(=C/c2cccs2)c2cccs2)c1C (centres undefined)	nt	0

Screening data from PubChem.

Rows are unselected. Share with any hit: about 0.37%.
